# Screening results (PubChem)
# TRPML1 inh = qHTS for Inhibitors of the Human Mucolipin Transient Receptor Potential 1 (TRPML1); AID 624415, 2012; 390,000 compounds, 0.02% hits; Mucolipin-1 (Homo sapiens), Q9GZU1; activity change, negative = inhibition, % (concentration not given with the values); TRPML1-inducible cells, Ca2+ dye fluorescence, FDSS; stronger effect = lower value; inhibition of EC80 agonist-evoked calcium signal; in the data active means activity change below about -50%; inconclusive means about -30% to -50%; inactive means above about -30%;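 further: stimulus is agonist 54-4 at its EC80 concentration; on the % scale 0 is the no-effect control and ±100 the full control effect; the text of the record puts the active cut at -80%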
# Target sequence (Q9GZU1 whole entry, looked up): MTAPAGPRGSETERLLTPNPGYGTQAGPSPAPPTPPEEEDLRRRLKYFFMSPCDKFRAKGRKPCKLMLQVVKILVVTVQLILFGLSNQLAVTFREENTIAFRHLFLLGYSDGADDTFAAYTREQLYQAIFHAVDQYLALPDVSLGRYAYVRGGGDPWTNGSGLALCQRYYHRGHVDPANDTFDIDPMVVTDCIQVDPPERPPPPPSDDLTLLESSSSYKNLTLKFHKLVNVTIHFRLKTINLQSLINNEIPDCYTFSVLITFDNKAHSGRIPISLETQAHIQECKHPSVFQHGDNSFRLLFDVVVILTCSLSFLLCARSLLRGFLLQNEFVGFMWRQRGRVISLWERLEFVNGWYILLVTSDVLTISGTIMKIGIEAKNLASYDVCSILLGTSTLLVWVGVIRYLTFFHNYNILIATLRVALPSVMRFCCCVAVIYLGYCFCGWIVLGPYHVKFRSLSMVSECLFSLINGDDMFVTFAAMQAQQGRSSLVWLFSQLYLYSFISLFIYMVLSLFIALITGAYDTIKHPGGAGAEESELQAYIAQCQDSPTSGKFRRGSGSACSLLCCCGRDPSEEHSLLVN
#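 Tet-induced TRPML1-DL cells loaded with Ca8 no-wash calcium dye were read kinetically on FDSS. Compound addition was followed by EC80 agonist 54-4 (4 uM final); inhibition was read over 110 s.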
# PINK1 modulator = A Quantitative High throughput Screen to Identify Chemical Modulators of PINK1 Expression. Potency, µM (doses to about 76.6 µM), without a hit: at the highest dose activation (PINK1 increase), hits mostly activators. 410,000 compounds, 0.2% hits. PINK1 immunofluorescence, high-content cytometry, 24 h. AID 624263, 2012; active = well fitted activation curve with a large enough effect; inconclusive = small, poorly fitted or top-dose-only effect; inactive = flat fitted curve, though single readings scatter; cell line not stated here;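 further: potency means the concentration at half of the fitted maximal effect; % of control where 0% means no effect; nearly all actives have a fitted effect of over 65% in size; a mitochondrial uncoupler was the plate control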
#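 Fluorescence from anti-PINK1 antibody, together with nuclear and cell stains, was scanned on a laser-scanning cytometer. Before staining, stable-line cells were incubated 24 hours with compounds at 5 concentrations; primary antibody 12 h at 10 degrees C.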
# TRPV1 potentiator = HTS Assay for Compounds that Act as Potentiators of the Vanilloid Receptor 1. Transient receptor potential cation channel subfamily V member 1 (Homo sapiens), Q8NER1. TRPV1-expressing cells, Fluo-8 calcium influx, capsaicin EC20 potentiation; host cell line not named in the record; control for the full effect not named in the record. potentiation, % at 8.33 µM. 320,000 compounds, 0.02% hits. AID 540277, 2011; active means potentiation above 80%; inconclusive means 30% to 80%; inactive means below 30%; further: 0% is about no effect
#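 Fluo-8 calcium influx in TRPV1-expressing cells, kinetic read (ex 480/em 520 nm). Compound added and read 3 min for agonist activity, followed by capsaicin at EC20 final and 2 min further read for enhancement.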
# ClpP mod = qHTS Assay for Activators of ClpP; Potency, µM (series often up to 57.5 µM), for inactives: at the top dose activity change, negative = active; 340,000 compounds, 1.9% hits; ATP-dependent Clp protease proteolytic subunit (Bacillus subtilis (strain 168)), P80244; purified B. subtilis ClpP, FRET peptide cleavage, 20 min; active = well fitted falling curve with a large enough effect; inconclusive = small, poorly fitted or top-dose-only effect; inactive = no such curve, though single readings can be large or run the other way; further: potency means the concentration at half of the fitted maximal effect; the source files actives as falling curves though it sought activators and does not explain the sign; nearly all actives have a fitted effect of over 65% in size; many hits overshoot -100%
# Target sequence (P80244 whole entry, looked up): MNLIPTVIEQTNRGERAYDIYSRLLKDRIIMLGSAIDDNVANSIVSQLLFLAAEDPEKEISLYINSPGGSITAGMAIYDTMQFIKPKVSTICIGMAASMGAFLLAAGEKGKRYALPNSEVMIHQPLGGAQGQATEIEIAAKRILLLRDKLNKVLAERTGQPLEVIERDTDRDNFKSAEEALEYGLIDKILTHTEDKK
#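 FRET quenching reversal measured ClpP activation: 10 microg/mL B. subtilis ClpP at pH 8 with the FRET-FV decapeptide, read at 430 nm after 320 nm excitation. The 20-min minus 0-min signal was scaled between DMSO/no-enzyme wells and ADEP (5.8 microM final).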
# Sfp PPTase inh = qHTS Assay for Inhibitors of Bacillus subtilis Sfp phosphopantetheinyl transferase (PPTase); Potency, µM, without a hit: max response, negative = inhibition, hits mostly inhibitors; 310,000 compounds, 3.5% hits; Biochemical Sfp PPTase activity, qHTS; active means well fitted inhibition curve with a large enough effect; inconclusive means small, poorly fitted or top-dose-only effect, or another doubt; inactive means no such curve, though single readings can be large or run the other way;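 further: the enzyme is Sfp with the accession as filed and its product quenches rhodamine fluorescence; potency means the concentration at half of the fitted maximal effect; 0% = enzyme reaction without inhibitor and -100% = no enzyme wells; top concentration of the series not given in the record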
#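 With Hepes-Na pH 7.6 buffer containing 10 mM MgCl2, Sfp (15 nM) modified BHQ-2-YbbR (12.5 uM) using rhodamine-CoA (5 uM). Two reads 30 minutes apart at 525/598 nm yielded each well's rate.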
# TRPML1 agonist = qHTS for Agonists of the Human Mucolipin Transient Receptor Potential 1 (TRPML1); TRPML1-expressing cells, Ca2+ dye fluorescence, FDSS; host cell line not named in the record; reference of the full effect not given here; activation, % (test concentration not listed); 410,000 compounds, 0.12% hits; Mucolipin-1 (Homo sapiens), Q9GZU1; in the data active = activation above about 50%; inconclusive = about 30% to 50%; inactive = below about 30%; further: 0% is about no effect; the text of the record puts the active cut at 80%
#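 Tet-induced TRPML1-DL cells, 1,500 per well, cultured overnight, were loaded with a no-wash Ca2+ dye for 45–90 min. Calcium fluorescence was recorded on the FDSS for 110 s after compound addition, before the EC80 agonist (4 uM 54-4) was added.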
# Menin MLL FP FL = qHTS Assay for Inhibitors Targeting the Menin-MLL Interaction in MLL Related Leukemias: Competition With Fluorescein Labeled MLL-derived Peptide. FP activity change, % at 61.4 µM. Fluorescence polarization, fluorescein-MLL peptide displacement from menin. 290,000 tested, under 10 active; inconclusive = falling polarisation curve, or a change in total fluorescence; inactive = total fluorescence flat and polarisation flat or rising; no compound was filed as active; the % refers to the polarisation; negative = inhibition;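 further: % of control where 0% means no effect; inhibitors lower the polarisation; unlabelled MLL peptide was the positive control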
# An asterisk follows results filed as active; ? = inconclusive; . = not tested or not shown; & = joins results of further samples; [ ] = dose if it differs, or a comment.
# Sequence of screens – TRPML1 inh	Menin MLL FP FL	PINK1 modulator	Sfp PPTase inh	ClpP mod	TRPV1 potentiator	TRPML1 agonist
1: CC(C)(C)OC(=O)N1CCC(c2c(C(=O)N3CCN(C4CCCCC4)CC3)cnn2-c2ccc(F)cc2)CC1
  -13	1.5	2.8%	9%	-0.8%	-5	-0.4
2: CNC(=O)CS(=O)(=O)CC(=O)Nc1cc(OC(C)C)c(Cl)cc1Cl
  -15	4.4	0.3%	6%	.	-1	-0.2
3: COc1ccc(NC(=O)N/C=C/c2ccco2)cc1
  -16	?	-3.5%	50µM*	.	1	1.0
4: COc1cc2c(cc1OC)CN(C(=O)Cc1ccc(OC)c(S(=O)(=O)N3CCOCC3)c1)CC2
  -5	4.3	-2.4%	17%	-5.2%	-6	1.0
5: CC(C)(C)c1ccc(NC(=O)Cn2cnc3cc([N+](=O)[O-])ccc3c2=O)cc1
  -2	0.7	9.6%	15%	.	-5	-0.4
6: CCN(CC)S(=O)(=O)c1cccc(NC(=O)CSc2nc3ccccc3[nH]2)c1
  1	-0.4	-0.5%	13%	.	4	-0.4
7: COCCn1c(COc2cccc(OC)c2)nnc1SCC(=O)N1CCOCC1
  19	-0.3	-0.1%[38.3 µM]	20%	-6.8%	?	0.4
8: CCCC(=O)OC1=CN(Cc2ccccc2)S(=O)(=O)c2ccccc21
  51	.	-0.8%	.	-2.4%	.	5.1
9: CCOC(=O)C1(C)CCN1C(=O)/C=C/c1ccccc1 (configuration not stated)
  .	.	-0.9%	.	0.1%	.	-0.5
10: O=C(NCCc1ccccc1)c1ccc2c(c1)OCCO2
  -1	.	1.0%	16%	-11%	-15	0.2
11: COc1ccc(/C=C/C(=O)Oc2cc(C)[nH]c(=O)c2[N+](=O)[O-])cc1OC
  -17	1.1	-1.1%	6%	.	7	-0.4
12: Clc1ccccc1-c1nnc2sc(-c3ccc(Br)o3)nn12
  -10	-0.9	-6.1%	-28%	-15%	-17	2.2
13: CC(=O)N(CCN(C(C)=O)c1ccccc1)c1ccccc1
  79	5.5	1.8%	5%	-7.9%	2	0.4
14: Cc1ccc(CNC(=O)c2sc3nc(-c4ccc(F)cc4)ccc3c2N)cc1
  28	.	1.8%	.	-17%	.	-0.8
15: CC1CCCN(C(=O)COC(=O)c2cc([N+](=O)[O-])ccc2N2CCOCC2)C1 (configuration not stated)
  -19	.	-1.0%	.	.	-33	0.5
16: CCOc1ccc(N2C(=O)N(Cc3ccc(C)cc3C)c3ccccc3S2(=O)=O)cc1
  15	.	2.3%	.	1.0%	.	0.5
17: Cc1onc(-c2c(F)cccc2Cl)c1C(=O)Nc1ccccc1N1CCOCC1
  -22	-1.3	3.4%	3%	-0.8%	2	2.5
18: COc1ccc(CNc2ncnc3c2[nH]c2ccccc23)cc1
  -9	0.5	?	-24%	.	1	14
19: O=C(Nc1cc(Cl)cc(Cl)c1)c1ccc(Cn2c(=O)[nH]c3ccsc3c2=O)cc1
  -10	-0.3	1.8%	15%	-0.6%	-15	0.3
20: COC(=O)CCC(=O)OC1(C)C(=O)C=C2C=C(C3CC3)N(c3ccccc3)C=C2C1=O (configuration not stated)
  -4	?	-0.5%	2%&16%	-5.6%	?	0.5
21: Cc1cc(C)cc(NC(=O)CCOc2ccccc2)c1
  3	-6.6	-0.3%	11%	-0.4%	-5	3.0
22: Cc1ccc(C(=O)N/C(=C/c2ccc(Cl)cc2)C(=O)NCC2CCCO2)cc1 (configuration not stated)
  15	-0.1	0.3%	2%	-0.7%	-12	2.4
23: Cc1cc(=O)[nH]c(SCC(=O)N2CCN(c3ccccc3)CC2)n1
  -14	.	0.4%	.	0.3%	.	-0.2
24: CC(c1ccccc1)c1nnc(N)s1 (configuration not stated)
  30	4.2	1.2%	-7%	-1.6%	3	0.7
25: Cn1cnc(S(=O)(=O)N2CCCC(C(=O)NCc3ccc(Cl)cc3)C2)c1 (configuration not stated)
  -8	.	-0.6%	.	-0.9%	.	2.1
26: Cc1ccc(/C=C/C(=O)O)cc1S(=O)(=O)N1CCC(Cc2ccccc2)CC1
  3	4.5	0.5%	-3%	-4.0%	2	1.0
27: CCOC(=O)c1c(C)[nH]c(C(=O)COC(=O)COc2ccccc2C)c1C
  10	5.0	-1.3%	4%	1.5%	1	-0.8
28: C=CCNC(=O)c1cc2c(=O)n3cccc(C)c3nc2s1
  -8	0.8	2.7%	17%	1.0%	8	1.0
29: O=C(COc1ccc([N+](=O)[O-])cc1)NN=C1CCCC1
  -2	5.0	.	2%	1.0%	.	0.3
30: COc1ccc(OCCn2cc(C(=O)C3CCCCC3)c3ccccc32)cc1
  7	.	0.0%	.	-0.9%	.	0.9
31: N#Cc1cc(C(=O)c2ccccc2OCC(=O)Nc2ccccc2)cn(C2CCCCC2)c1=O
  -8	4.4	7.4%	15%	.	0	3.5
32: O=C(Cn1cnc2c(cnn2-c2ccccc2)c1=O)NCCc1ccccc1
  18	1.5	-1.2%	16%	-3.3%	7	-0.6
33: O=C(Nc1ccccn1)c1ccc2ccccc2n1
  -4	-2.1	-1.5%	?	2.7%	8	0.3
34: Cc1ccc(-c2nnn(CC(=O)Nc3ccccc3-c3ccccc3)n2)c(-n2cnnn2)c1
  52	2.2	-1.1%	18%	11µM*	-19	0.7
35: CS(=O)(=O)N(CC(=O)Nc1cc(Cl)ccc1Cl)c1ccccc1Cl
  -11	0.6	0.0%	11%	-7.5%	-8	1.9
36: O=c1cc(-c2ccccc2)nc(N2CCCCC2)[nH]1
  -3	-6.8	-1.9%	7%	-28%	16	3.5
37: COc1cccc(C(=O)Nc2cccc(SC)c2)c1
  6	0.2	1.5%	-9%	-1.3%	-25	0.3
38: O=S(=O)(c1ccc(SCCOc2ccccc2)nc1)N1CCCC1
  -9	.	0.6%	.	-3.3%	?	2.6
39: Cc1ccc(S(=O)(=O)NNC(=O)C2Cc3c(ccc4ccccc34)O2)cc1 (configuration not stated)
  -6	1.1	-1.6%	7%	-4.2%	-10	-0.5
40: COC(=O)c1ccc(NC(=O)CSc2nnc(-c3cccnc3)o2)cc1
  2	.	1.2%	.	0.7%	3	-0.1
41: CC(C)C(c1nnnn1C1CCCCC1)N1CCN(c2ncccn2)CC1 (configuration not stated)
  15	9.4	4.2%	13%	-2.5%	-13	0.3
42: COc1cc(/C=C/C(=O)OCC(=O)N2c3ccccc3NC(=O)C2(C)C)cc(OC)c1OC
  -22	.	-2.4%	.	-15%	14	0.5
43: CCCCc1c(C)[nH]c(C(=O)OCC)c1C
  -11	-0.6	6.9%	21%	.	-16	1.1
44: Cc1cccc(-c2nc(CS(=O)CC(=O)NC3CCCC3)c(C)o2)c1 (configuration not stated)
  -4	0.1	-0.9%	-6%	-14%	-5	-0.3
45: CCC/C=C1/CCCOC(C(=O)NCc2ccccc2)(C(F)(F)F)C1 (configuration not stated)
  -13&55	-7.8	2.1%	1%	-4.0%	.	-0.6&3.0
46: COCn1c(COc2ccc3ccccc3c2)nc2ccccc21
  32	-0.5	5.0%	-4%	-0.3%	-8	3.7
47: O=C(O)c1cccc(Cn2c(Cl)c(/C=N/NC(=O)c3cccc(O)c3)sc2=O)c1
  -8	11	1.3%	16%	.	.	0.3
48: COc1cccc(OCC(=O)Nc2ccccc2C(=O)Nc2ccc(C(=O)O)cc2)c1
  -6	.	0.7%	10%	4.4%	0	1.9
49: O=C(CN(Cc1ccccc1F)C(=O)Cn1nnc(-c2cccs2)n1)NCC1CCCO1 (configuration not stated)
  -7	0.5	3.5%[38.3 µM]	8%	-1.5%	6	0.5
50: CCOC(=O)c1ccc(NC(=O)c2cccc3c(=O)c4c([nH]c23)CCCC4)cc1
  48	.	0.3%	.	-1.1%	.	-0.5
51: c1csc(-c2nc(-c3ccc(-c4ccon4)s3)no2)c1
  -7	1.2	5.5%	9%	-21%	1	1.1
52: Cc1cc(NC(=O)c2cccs2)cc(-c2nc3ncccc3o2)c1O
  -2	.	14%	-10%	4.2%	9	1.3
53: CCCCNC(=O)COC(=O)c1cc(C)oc1C
  -5	0.5	0.0%	21%	.	-16	0.3
54: O=S(=O)(NCC1(N2CCOCC2)CCCCC1)c1ccc(F)cc1
  -5	.	-1.0%	.	-1.3%	-5	0.9
55: C=CCOc1c(Br)cc(CNn2c(C)n[nH]c2=S)cc1OCC
  -11	0.2	3.2%	-7%	1.4%	4	0.7
56: CC1CCCCN1C(=O)CSc1nnc(-c2cccnc2)o1 (configuration not stated)
  -18	-6.9	-1.8%	17%	.	8	0.5
57: Cc1ccc(NC2=C(Cl)C(=O)OC2OC(=O)c2ccccc2)c(C)c1 (configuration not stated)
  6	-2.6	-0.9%	50µM*	.	-2	1.0
58: Cc1ccc(OCC(O)CN2CCN(CC(O)COc3ccc(C)cc3)CC2)cc1 (configuration not stated)
  21	-2.2	-1.1%	6%	-0.5%	-9	0.6
59: COc1ccc(N2CCN(c3nc(Nc4ccc(F)cc4)nc(OC)n3)CC2)cc1
  .	-0.7	.	5%	.	5	.
60: Cc1ccc(F)cc1NC(=O)c1ccc(Cn2nc(N3CCN(c4ccccc4)CC3)ccc2=O)o1
  6	.	1.3%	.	-4.2%	.	0.9
